# RE007 growth inh – less growth of the S. pombe RE007 Vpr strain | 360,000 compounds, 0.21% hits | Potency, µM (highest dose often 92.2 µM), for the others: at the highest dose activity change, negative = less growth | S. pombe RE007 Vpr strain, BacTiter-Glo ATP luminescence, 24 h; control for the full effect not named in the record; active = well fitted falling curve with a large enough effect; inconclusive = small, poorly fitted or top-dose-only effect; inactive = no such curve, though single readings can be large or run the other way;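 further: on the % scale 0 is the no-effect control and ±100 the full control effect; nearly all actives have a fitted effect of over 50% in size; the assay follows cell death caused by Vpr and the record does not say whether a fall means rescue or toxicity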
#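 Fission yeast RE007 carrying one integrated HIV-1 vpr copy, seeded at OD 0.01 in PMG+AL medium with 23 nL pinned compound. Grown 24 h at 30 degrees; viability read by BacTiter-Glo luminescence after 5 min.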
# Cruzain inh Det – inhibitors of Trypanosoma cruzi cruzain with detergent; P25779; purified cruzain, Z-FR-AMC fluorescence, 0.01% Triton; Potency, µM, without a hit: max response, negative = inhibition, most hits filed as inhibitors; 200,000 compounds, 0.43% hits; AID 1478;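 further: plate controls were neutral wells for no effect and buffer without enzyme for full effect; nearly all actives have a fitted effect of over 40% in size; top concentration of the series not given in the record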
# Target sequence (P25779 123-467 limits assumed): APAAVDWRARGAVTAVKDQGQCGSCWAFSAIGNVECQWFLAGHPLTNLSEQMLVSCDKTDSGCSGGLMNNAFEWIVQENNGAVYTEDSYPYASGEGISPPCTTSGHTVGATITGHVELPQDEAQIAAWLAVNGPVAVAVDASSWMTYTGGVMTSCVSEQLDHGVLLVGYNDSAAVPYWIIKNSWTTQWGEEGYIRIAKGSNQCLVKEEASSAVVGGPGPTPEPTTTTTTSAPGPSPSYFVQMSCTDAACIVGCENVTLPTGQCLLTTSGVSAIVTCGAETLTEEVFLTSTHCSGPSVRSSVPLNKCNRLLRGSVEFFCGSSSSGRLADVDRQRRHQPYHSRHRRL
#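 15 min RT preincubation of 1.5 nM cruzain with compound, then 2 uM Z-FR-AMC added; kinetic AMC fluorescence, 60 s delta. Triton X-100 0.01%, pH 5.5.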
# MARV entry inh – Marburg virus entry inhibition. AID 540276. 300,000 compounds, 1.8% hits. Potency, µM (highest dose often 37.8 µM), for inactives: at the highest dose activity change, negative = inhibition, usual class: inhibitors. Marburg virus pseudotyped entry inhibition, cell reporter; control for the full effect not named in the record; about a third of the inactives were read at about 46 µM; active = well fitted inhibition curve with a large enough effect; inconclusive = small, poorly fitted or top-dose-only effect, or effect the other way; inactive = flat fitted curve, though single readings scatter; tested in HEK293 cells; about a fifth of its hits are not listed in these tables; further: on the % scale 0 is the no-effect control and ±100 the full control effect; luciferase read-out
# NS1 inh – blocks influenza NS1 protein function | AID 2326 | S. cerevisiae slowed by influenza A NS1, growth recovery by OD600 | Potency, µM (highest dose often 46.1 µM), without a hit: at the highest dose activity, positive = more growth | 270,000 compounds, 0.4% hits; active means well fitted rising curve with a large enough effect; inconclusive means small, poorly fitted or top-dose-only effect; inactive means no such curve, though single readings can be large or run the other way; further: nearly all actives have a fitted effect of over 50% in size
#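 A cell-based growth assay was used: compounds that relieve NS1-induced slow growth of budding yeast raise OD600. Assay medium was yeast nitrogen base with ammonium sulphate and -URA supplement, pH 6.0, with 2% galactose.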
# LASV entry inh – blocks Lassa virus binding to or entry into cells; Potency, µM (highest dose often 37.9 µM), for the others: top-dose activity change, negative = inhibition, usual class: inhibitors; 300,000 compounds, 1.2% hits; Lassa virus pseudotype entry inhibition, cell reporter; control for the full effect not named in the record; active means well fitted inhibition curve with a large enough effect; inconclusive means small, poorly fitted or top-dose-only effect, or effect the other way; inactive means flat fitted curve, though single readings scatter; tested in HEK293 cells; further: on the % scale 0 is the no-effect control and ±100 the full control effect; nearly all actives have a fitted effect of over 50% in size; luciferase read-out
# SARS PLpro yeast – SARS-CoV PLP inhibition in yeast. S. cerevisiae expressing SARS-CoV PLpro, growth rescue; control for the full effect not named in the record. Potency, µM (highest dose often 32.9 µM), for the others: top-dose activity, positive = growth rescue. 330,000 compounds, 0.19% hits; active means well fitted rising curve with a large enough effect; inconclusive means small, poorly fitted or top-dose-only effect; inactive means no such curve, though single readings can be large or run the other way; further: 0% is about no effect; nearly all actives have a fitted effect of over 55% in size; growth read by luminescence after 48 h
# 2A StopGo – FMDV 2A StopGo reporter, luciferase signal; human cells with a luciferase reporter of 2A StopGo recoding; control for the full effect not named in the record; Potency, µM (titrated, usually from 57.9 µM), for inactives: at the top dose signal change, negative = less light; 410,000 compounds, 1.2% hits; AID 1159524; active = well fitted falling curve with a large enough effect; inconclusive = small, poorly fitted or top-dose-only effect; inactive = no such curve, though single readings can be large or run the other way; tested in HEK293T cells; further: on the % scale 0 is the no-effect control and ±100 the full control effect; nearly all actives have a fitted effect of over 45% in size; luciferase light after 4 h
# Cruzain inh noDet – cruzain (T. cruzi) inhibition without detergent; P25779; purified cruzain, Z-FR-AMC fluorescence, no detergent; Potency, µM, without a hit: max response, negative = inhibition, actives largely listed as inhibitors; 200,000 compounds, 2.3% hits;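 further: plate controls were enzyme without inhibitor for no effect and buffer without enzyme for full effect; nearly all actives have a fitted effect of over 40% in size; top concentration of the series not given in the record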
#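 Purified cruzain at 1.5 nM, pre-incubated 15 min with compound at room temperature in 100 mM sodium acetate pH 5.5, 5 mM DTT, 0.00005% Triton X-100. Reaction started with 2 uM Z-FR-AMC; AMC fluorescence increase over 60 s gives rate.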
# Active calls of the source: *; ? = inconclusive; · = no result given; & = joins results of further samples; [ ] = dose if it differs, or a comment. Unless noted, the call rests on the fitted dose curve; in most records, active means well fitted curve in the direction sought with a large enough effect; inconclusive means small, poorly fitted or top-dose-only effect, or another doubt; inactive means no such curve, though single readings can be large; an effect the other way counts as inactive or inconclusive. Potency means the concentration at half of the fitted maximal effect. Rows were taken by chance. About 4.7% of those tested had a hit in this group.
SMILES,RE007 growth inh,Cruzain inh Det,MARV entry inh,NS1 inh,LASV entry inh,SARS PLpro yeast,2A StopGo,Cruzain inh noDet
Oc1cc(O)cc(/C=C/c2ccc(O)c(O)c2)c1,-18%[18.4 µM],-9.3%&3.1%,?,-3%,4.1µM*,·,?,-22%&-13%
O=C(NCCCN1CCOCC1)c1cc(-c2ccccc2)on1,9%,-8.8%,20%,-14%,?,3%,80%[activator],-5%
Oc1cccc(C2c3[nH]c4ccccc4c3CCN2Cc2ccoc2)c1 (centres undefined),-1%,·,·,1%,·,-2%,-25%,·
COc1ccc(CCNC(=O)C2CCN(c3nccc(C)n3)CC2)cc1,14%,·,3%,-4%,3%,-1%,-1%,·
Clc1ccc(/C=C/c2ncc[nH]2)c(Cl)c1,-18%,·,·,-79%,·,-7%,54%[activator],·
CCCCn1c(CN2CCOCC2)nc2c1c(=O)n(C)c(=O)n2C,-11%,-3.7%,·,-77%,·,1%,-23%,-11%
Nc1cccc(-c2cc(-c3ccccc3)nc(-c3cccc(N)c3)n2)c1,-12%,-10%,8%,?,0%,21%,?,-22%
COC(=O)c1ccc(OCC(O)CN2CCc3cc(OC)c(OC)cc3C2c2ccccc2)cc1 (centres undefined),-4%,·,?,-25%,?,1%,?,·
CN(C)CC(C(=O)c1ccccc1)c1ccccc1 (centres undefined),40µM*,5.8%,6.3µM*,-40%,8.9µM*,-17%,18µM*,1%
COc1ccc(COC(=O)C2=C(C)NC(=O)NC2c2ccc(F)cc2)cc1 (centres undefined),6%,·,?,11%,?,10%,25µM*,·
Cc1ccc(NC(=O)c2cc3c(-c4ccccc4)nn(-c4ccccc4)c3s2)cc1,·,-1.0%,-5%[46.1 µM],·,18%[46.1 µM],·,-6%,-5%
Cc1ccc(-c2nnn(CC(=O)N(c3cccc(O)c3)C(C(=O)NC(C)(C)C)c3cccs3)n2)o1 (centres undefined),13%,-7.4%,-23%,-6%,3%,0%,-10%,6%
Nc1ccc2nc(-c3cc(Cl)c(N)c(Cl)c3)[nH]c2c1,1%,?,?,?,7%,-5%,35%[activator],16µM*
CCNC(=S)NNC(=O)c1cc(-c2ccccc2C)nc2ccccc12,-1%,0.3%,2%,11%,-3%,5%,2%,3%
CCCC(=O)Nc1sc(C(=O)OC)c(C)c1C(N)=O,9%,2.6%,-2%,-11%,-14%,1%,·,-9%
C(=C\c1ccccc1)/CSc1nnc(-c2cnccn2)n1Cc1ccco1,1%,-22%,-24%,-63%,-13%,-2%,-18%,-16%
Cc1nc(SCC(=O)NCc2ccco2)nc(C)c1C,31%,2.3%,-1%,9%,9%,1%,-5%,-4%
CC1(C)CC2(C)OC(=N)C1(C#N)C2(C#N)C#N (centres undefined),-4%,·,?,-4%,?,-1%,22µM*,·
COc1ccc(CN2CCN(CC3CC3)CC2CCO)cc1C (centres undefined),-11%,·,·,-12%,·,4%,2%,·
Fc1cccc(Cl)c1Cn1nnc2c(NCc3ccccn3)ncnc21,27%,-4.1%,-2%[46.1 µM],-17%,9%,3%,?,-11%
COc1ccccc1NC(=O)c1ccc(NC(=O)C2CC2)cc1,-12%,·,1%,·,?,·,18%,·
CC1CCC(N(CCCN)Cc2ccco2)CC1C (centres undefined),-1%,·,?,·,5%,-1%,-22%,·
CC(C)c1nnc(N2C(=O)C(O)=C(C(=O)c3cccs3)C2c2ccccc2)s1 (centres undefined),13%,·,·,10%,·,0%,-9%,·
Cc1ccccc1-c1nnc(CN2CCN(c3cccc(C)c3C)CC2)o1,·,-4.7%,7%[46.1 µM],·,22%[46.1 µM],·,2%,8%
Cc1cccc(N2C(S)=C(C#N)C(=O)NC2c2ccco2)c1 (centres undefined),-1%,·,?,-6%,9%[46.1 µM],-3%,-4%,·
COC(=O)[C@@]1(Cc2ccc(F)cc2)[C@H]2c3cc(C(=O)N4CCCC4)n(CCc4c[nH]c5ccc(OC)cc45)c3C[C@H]2CN1C(=O)c1ccccc1,·,-2.3%&-6.4%,12%,13µM*,2%,7%,·,?
CCOC(=O)C1C(=O)C=C(N2CCOCC2)CC1c1cccc(OC)c1 (centres undefined),11%,2.4%,-11%[46.1 µM],15%,4%,-1%,7%,8%
COc1ccc(C(=O)CNC2=NCCC2)cc1,-13%,·,-9%[46.1 µM],·,1%,2%,-2%,·
COc1cccc(C(=O)NCCNC(=O)c2ccc(C)nc2)c1,2%,·,8%[46.1 µM],-6%,5%[46.1 µM],-2%,5%,·
CN(C)c1ccc(N=C/C=C2\N(C)c3ccccc3C2(C)C)cc1,?,-7.0%,?,-6%,?,-11%,?,-11%
CCCCN(C)CCCNC(=O)Cn1nc(CC)n2c(cc3sc(C)cc32)c1=O,·,-3.0%,?,·,·,·,-8%,-8%
Nc1cc(Cl)cc2c1-c1ccc(Cl)cc1C2,?,·,-23%[46.1 µM],·,-1%[46.1 µM],·,7%,·
OCC1(CCOc2ccccc2)CCN(Cc2ccc3c(c2)OCCO3)CC1,5%,·,·,-5%,·,1%,-5%,·
CC1CN(Cc2cn(C)nc2-c2ccc(Oc3ccccc3)cc2)CCN1C (centres undefined),5%,·,?,3%,?,0%,-11%,·
Cc1cccn2c(=O)c(C=O)c(N3CCCCCC3)nc12,-1%,-2.5%,-19%,-105%,1%,-10%,-12%,-3%
O=C(Nc1ccccc1)c1sccc1Oc1ccc([N+](=O)[O-])cc1F,-7%,·,?,·,2%[46.1 µM],-15%,-20%,·
Cn1c(N)cc(-c2ccc(F)cc2)c(C#N)c1=O,-5%,·,·,-6%,·,0%,-6%,·
CCOC(=O)c1sc2nc(C)nc(NCc3ccccc3)c2c1C,2%,·,·,-46%,·,-1%,?,·
Cc1cc(C)cc(OCC(=O)N/N=C/c2ccncc2)c1,21%,-2.3%,-8%,-6%,-1%,-18%,9%,0%
COc1cc(Cl)c(C)cc1NC(=O)c1cc(S(=O)(=O)N(C)C)ccc1N1CCCC1,-8%,-4.7%,?,17%,?,-17%,0%,13%
CC1CN(c2ccccc2)CCN1C(=O)c1cc(COc2c(F)cccc2F)on1 (centres undefined),6%,·,·,16%,·,-8%,-28%,·
CCOc1ccccc1CNC(=O)c1ccc2c(c1)N(CC)CCS2,9%,-0.1%,-3%[46.1 µM],5%,·,-6%,-15%&-15%,-17%
O=C(NCCc1c[nH]c2ccccc12)/C(=C\c1cccnc1)NC(=O)c1ccccc1Br,2%,·,·,-6%,·,-4%,3.5µM*,·
COC(=O)c1ccc(CSc2nc3c(c(=O)n2-c2ccc(C)cc2)SCC3)o1,-8%,-3.0%,·,-10%,·,-4%,?,-21%
O=C(Nc1ccc(COc2ccccc2)cc1)Nc1cccc(C(=O)O)c1,-4%,·,·,3%,·,2%,9%,·
Cn1nnnc1SCc1c(F)cccc1F,12%,0.4%,0%,-14%,3%,-1%,2%,11%
COc1ccc(C(=O)Nc2nc3c(s2)Cc2cc(OC)ccc2-3)cc1,-14%,-10%&-0.8%,8%[46.1 µM],6%,11%[46.1 µM],-15%,10µM*,-26%&-8%
Cn1c(-c2ccccn2)[n+](C)c2ccccc21,5%,·,20%[46.1 µM],2%,8%[46.1 µM],1%,28%,·
CC(C)NC(=S)N/N=C/c1cccs1,-24%,-3.8%,6%,14%,6%,?,27%,0%
O=C(Nc1nc2ccccc2[nH]1)c1ccc(Cl)c([N+](=O)[O-])c1,-1%,·,8%[46.1 µM],·,-2%[46.1 µM],0%,4%,·
COc1ccccc1N1CCN(C(=O)C2CCC(Cn3c(=S)[nH]c4ccccc4c3=O)CC2)CC1 (centres undefined),2%[3.69 µM],-3.8%,?,-72%,-24%,4%,?,-6%
C=CCNC(=S)N/N=C/c1ccc(C(C)(C)C)cc1,?,·,?,·,?,?,-7%,·
COc1ccc(OC)c(S(=O)(=O)NCCc2csc(-c3cccnc3)n2)c1,-4%,·,·,-2%,·,1%,72%[activator],·
O=C(Nc1ccccc1N1CCN(C(=O)c2ccccc2)CC1)c1cccc(Cl)c1,0%,·,·,4%,·,-6%,?,·
CCCCn1cnc2c(SCc3ccc(Br)cc3)nc(N)nc21,6%,·,?,·,-10%[46.1 µM],·,0%,·
CN(C)C(=O)c1nnsc1Sc1ccc(Cl)cc1,35%,·,?,·,12%,0%,8%,·
Cc1cc(C)c(S(=O)(=O)Oc2ccccc2[N+](=O)[O-])c(C)c1,9%,·,?,·,3.2µM*,·,-26%,·
COc1ccc(N=Nc2c(C)[nH][nH]c2=O)cc1,4%,·,-3%[46.1 µM],·,-2%,1%,37%[activator],·
COc1cc(/C=C/C(=O)OCC(=O)N2CCN(C(=O)c3ccco3)CC2)ccc1O,11%,-8.0%,5%,0%,3%,-13%,-7%,3%
CNC(=O)c1cc2c(=O)n3cccc(C)c3nc2n(C(C)C)c1=N,-1%,25µM*,?,5%,-1%,8%,-7%,?

# Some of the entries above, reformatted:
mol	RE007 growth inh	Cruzain inh Det	MARV entry inh	NS1 inh	LASV entry inh	SARS PLpro yeast	2A StopGo	Cruzain inh noDet
COc1ccc(N=Nc2c(C)[nH][nH]c2=O)cc1	4%	·	-3%[46.1 µM]	·	-2%	1%	37%[activator]	·
COc1ccc(C(=O)CNC2=NCCC2)cc1	-13%	·	-9%[46.1 µM]	·	1%	2%	-2%	·
COc1ccc(COC(=O)C2=C(C)NC(=O)NC2c2ccc(F)cc2)cc1 (centres undefined)	6%	·	?	11%	?	10%	25µM*	·
C(=C\c1ccccc1)/CSc1nnc(-c2cnccn2)n1Cc1ccco1	1%	-22%	-24%	-63%	-13%	-2%	-18%	-16%
